Compound activity as filed in PubChem BioAssay.
HPGD block – HPGD (human) dehydrogenase inhibition; 4.3% of 150,000 active; purified HPGD, NADH fluorescence kinetic, PGE2 substrate; P15428; AID 894; Potency, µM, for inactives: top-dose activity change, negative = inhibition, hits mostly inhibitors; active = well fitted inhibition curve with a large enough effect (not every such curve was filed as active); inconclusive = small, poorly fitted or top-dose-only effect, or another doubt; inactive = no such curve, though single readings can be large or run the other way;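 note: top concentration of the series not given in the record; plate controls included wells without enzyme; inactives centre near -10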
Target sequence (P15428 whole entry, looked up): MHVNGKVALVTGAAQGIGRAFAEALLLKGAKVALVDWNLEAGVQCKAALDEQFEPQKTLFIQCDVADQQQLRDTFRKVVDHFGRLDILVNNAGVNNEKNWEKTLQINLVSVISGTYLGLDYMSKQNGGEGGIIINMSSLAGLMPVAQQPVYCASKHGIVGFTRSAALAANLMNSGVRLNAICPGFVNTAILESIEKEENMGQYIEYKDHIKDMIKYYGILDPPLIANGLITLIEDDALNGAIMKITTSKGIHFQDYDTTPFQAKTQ
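20 nM HPGD preincubated 15 min at room temperature with compound in 50 mM Tris-HCl pH 8, 0.01% Tween 20. Started with 1 mM NAD+ and 30 uM prostaglandin E2; NADH fluorescence (360/450 nm) read 5 times over 30-s intervals, last minus first.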
An asterisk follows results filed as active; ? = inconclusive; & = joins results of further samples. % is set by controls: 0 for no effect and ±100 for the full control effect; potency is the fitted concentration of half-maximal effect. This is a subset, so the mix of outcomes need not match the whole.

Start of the listing, in advance, 6 compounds:
HPGD block | Structure
-11% | COC(=O)C1=C(C(C)=O)C(c2ccc(C(=O)OC)cc2)n2nnnc2N1 (stereo not drawn)
-5% | CCN(CC)C(=O)CN(c1ccc2c(c1)OCO2)S(C)(=O)=O
-11% | Cc1c(C(=O)OCC(=O)Nc2ccc3c(c2)OCO3)cccc1[N+](=O)[O-]
-6% | Fc1ccc(NCc2cccnc2)cc1
-5% | O=C1CC(=C(c2ccccc2)c2ccccc2)C(=O)N1CCCCN1CCN(c2cccc(Cl)c2)CC1
-7% | C/C(=N\NC(=O)C1CC1)c1ccc(Cl)cc1

Main list, from the start:
HPGD block | Structure
-11% | COC(=O)C1=C(C(C)=O)C(c2ccc(C(=O)OC)cc2)n2nnnc2N1 (stereo not drawn)
-5% | CCN(CC)C(=O)CN(c1ccc2c(c1)OCO2)S(C)(=O)=O
-11% | Cc1c(C(=O)OCC(=O)Nc2ccc3c(c2)OCO3)cccc1[N+](=O)[O-]
-6% | Fc1ccc(NCc2cccnc2)cc1
-5% | O=C1CC(=C(c2ccccc2)c2ccccc2)C(=O)N1CCCCN1CCN(c2cccc(Cl)c2)CC1
-7% | C/C(=N\NC(=O)C1CC1)c1ccc(Cl)cc1
-11% | Cc1cc(C)n(CCc2nc(-c3ccc(-c4ccccc4)cc3)cs2)n1
-14% | CC(=O)Nc1ccn(-c2ccccc2)n1
-14% | CCOc1ccc(NC(=S)N(Cc2ccc(N(C)C)cc2)Cc2ccco2)cc1
-19% | CN(C)S(=O)(=O)c1ccc(C(=O)NCc2ccc3[nH]c4c(c3c2)CCCC4)cc1
-19% | Cc1cccc(C(=O)NC(=S)N2CCN(C(=S)NC(=O)c3cccc(C)c3)CC2)c1
-1% | C1=C(c2cccc3ccccc23)N2CCN=C2S1
? | COc1ccccc1NC(=S)NCC1CCCCC1
-8% | O=c1cc(N2CCN(c3ccccc3)CC2)[nH]c(=O)n1-c1ccccc1Cl
-6% | COc1ccccc1N1CCN(C(=O)c2ccoc2C)CC1
0% | CCN(CC)CCn1c(=S)[nH]c2ccccc2c1=O
-5% | O=C(NNC(=O)c1cccnc1)NC12CC3CC(CC(C3)C1)C2
-15% | CN(C)c1ccc(C(=O)C(O)c2ccc(C(C)(C)C)cc2)cc1 (stereo not drawn)
-1% | CCN(c1ccc2c(c1)OCO2)S(=O)(=O)c1cc(Br)cc2c1N(C(=O)C1CC1)CC2
-24% | CCOC(=O)C1CCN(c2c(N3CCN(Cc4ccccc4)CC3)c(=O)c2=O)CC1

(next part)
HPGD block | Structure
-1% | COc1cccc(NC(=O)CN(C)S(=O)(=O)c2ccc(C)cc2)c1
-8% | CC(C)Sc1nnc([C@H](Cc2c[nH]c3ccccc23)NC(=O)OC(C)(C)C)o1
-10% | O=C1OCCN1C(=O)[C@H]1[C@H](c2ccc([N+](=O)[O-])cc2)C(c2ccc(F)cc2)=NN1c1ccccc1
-3% | NC(=O)c1cc2cc(Cl)ccc2oc1=Nc1cccc(C(F)(F)F)c1
-8% | Cc1ccc(C(OC(=O)c2ccco2)C(=O)NC2CCCCC2)cc1 (stereo not drawn)
? | O=C(Nc1cccc(-c2nc3ccccc3o2)c1)c1ccc(N2C(=O)C3C4C=CC(C4)C3C2=O)cc1 (stereo not drawn)
-9% | O=C1Nc2ccc(F)cc2C12SCCS2
-13% | COc1ccc(OCCC(=O)OCC(=O)NCc2ccccc2)cc1
-11% | CN(C)CCNc1c2c(c(C#N)c3nc4ccccc4n13)CCCC2
-7% | CS(=O)(=O)c1ccc(N2CCN(C3CC(=O)NC3=O)CC2)cc1 (stereo not drawn)
-14% | Cn1c(=O)c2c(nc(N3CCCCC3)n2C)n(C)c1=O
-8% | CCc1ccc2oc(=O)cc(CN3CCN(CCO)CC3)c2c1
-3% | CN1CCN(S(=O)(=O)c2ccc(-c3ccc(Cl)cc3)cc2)CC1
-15% | C=CCN(CC=C)C(=S)NC(=O)c1ccc(OC)c(Br)c1
-7% | CC1=C(C(=O)OCc2ccccc2)C(c2ccc(N3CCOCC3)cc2)NC(=O)N1 (stereo not drawn)
? | CC(C)c1ccc(-c2nc3c([nH]2)c(=O)n(C)c(=O)n3C)cc1
-13% | COc1ccc(-c2nc(-c3cccc(C(F)(F)F)c3)no2)cc1OC
-16% | Cc1cccc(CSc2nc3ccncc3n2CC(=O)Nc2cc(C)cc(C)c2)c1
2% | Cc1ccc(S(=O)(=O)N2CCN(S(=O)(=O)c3ccc(C)cc3)C2)cc1
2% | CC12CCC(C(=O)N(c3ccc(Cl)cc3)C1=O)C2(C)C (stereo not drawn)

2 neighbouring compounds out of the list so far:
HPGD block | Structure
2% | Cc1ccc(S(=O)(=O)N2CCN(S(=O)(=O)c3ccc(C)cc3)C2)cc1
2% | CC12CCC(C(=O)N(c3ccc(Cl)cc3)C1=O)C2(C)C (stereo not drawn)

Among those listed so far, these have a CF3 group.
HPGD block | Structure
-3% | NC(=O)c1cc2cc(Cl)ccc2oc1=Nc1cccc(C(F)(F)F)c1
-13% | COc1ccc(-c2nc(-c3cccc(C(F)(F)F)c3)no2)cc1OC

Going on with the list:
HPGD block | Structure
1% | Cc1cc2ncn(C3CC(=O)N(Cc4ccc(N5CCCC5=O)cc4)C3=O)c2cc1C (stereo not drawn)
? | CCCCCn1c(N)c(C#N)c2nc3ccccc3nc21
? | COC(=O)c1sc(NC(=O)c2oc3ccccc3c2C)nc1C
-8% | COc1cccc(-c2nc(CS(=O)(=O)CC(=O)NCCCOC(C)C)c(C)o2)c1
? | CC(C(=O)NCc1ccc2c(c1)OCO2)N1c2cccc3cccc(c23)S1(=O)=O (stereo not drawn)
3% | Cc1cc(C)n(CCCNCC(O)c2ccccc2)n1 (stereo not drawn)
-21% | O=C(NC(=S)N1CCCCC1)c1cccs1
? | COC(=O)c1ccc(N2CCOCC2)c(NC(=O)Nc2cccc(OC)c2)c1
-6% | COc1nc(C)nc(NC(=O)NS(=O)(=O)c2ccc(C)cc2)n1
-13% | CCOC(=O)c1nnc2cc(-c3ccc(Br)cc3)nn2c1C
-5% | CC(C)CNS(=O)(=O)c1ccc(OCC(=O)NCC2CCCO2)c(Cl)c1 (stereo not drawn)
-1% | CCCCC(=O)Nc1ccc(NC(=O)c2ccccc2OC)cn1
-16% | Cc1ccc2[nH]c(=O)c(CN(Cc3cccnc3)C(=O)c3ccncc3)cc2c1
1% | Cn1ccnc1SCC(=O)NC1CC1
-13% | Cc1cccc(CCNc2nc3ccccc3n3nnnc23)c1
-9% | NS(=O)(=O)c1ccc(CNC(=O)C23CC4CC(CC(C4)C2)C3)cc1
-5% | CCCCc1nc2ccccc2c(NC(=O)CN2CCCC2)c1CCC
-2% | CCOC(=O)CC1COc2ccccc2N1C(=O)c1ccc(C)cc1 (stereo not drawn)
-17% | Cc1nnc(N/N=C\c2ccc(-c3ccccc3[N+](=O)[O-])o2)n1N
7.9µM* | CC1CCc2c(C(=O)NCC3CCCO3)csc2C1 (stereo not drawn)

(further entries)
HPGD block | Structure
-3% | CNC(=O)c1sccc1SCc1c(Cl)cccc1Cl
1% | Cc1nn(C(C)C(=O)O)c2ccccc12 (stereo not drawn)
-14% | NC(=NC(=O)c1ccccc1)N1CCOCC1
2% | CNC[C@@H](SC)c1ccc(O)c(O)c1
-11% | CCC(c1nnnn1CC1CCCO1)N(CCCO)Cc1cc2cccc(C)c2[nH]c1=O (stereo not drawn)
-5% | CCOP(=O)(OCC)C(NC(=O)Nc1cccc(Cl)c1)c1ccccc1 (stereo not drawn)
-18% | O=C(COc1ccc(/C=N/NS(=O)(=O)c2ccccc2)cc1)NCCc1ccccc1
25µM* | Fc1ccccc1-n1[nH]nnc1=S
-6% | O=C(Nc1ccccc1C(F)(F)F)c1ccc(F)c(S(=O)(=O)N2CCOCC2)c1
-10% | COc1ccc(N2C(=O)C3CCCN3C2c2ccccc2)cc1Cl (stereo not drawn)
-10%&-4% | N=c1ccn2c(n1)OC1C(O)C(CO)OC12 (stereo not drawn)
? | CCCCn1c(=O)nc2n(-c3ccccc3C)c3ccccc3cc-2c1=O
-15% | CCc1nnc(NC(=O)Cn2nc(-c3ccccc3OC)ccc2=O)s1
? | N#Cc1nc(-c2ccc(Cl)cc2)oc1N1CCCCC1
? | CCOC(=O)N1CCC(NC(=O)c2ccc3c(c2)N(Cc2ccc(C)cc2)CCS3)CC1
-19% | CCOC(=O)CNC(=O)C1CCCN(c2ncccn2)C1 (stereo not drawn)
0% | CC1=C(C)C(=O)C(N2CCOCC2)=CC1=O
-18% | COc1ccc(CCNC(=O)/C=C/c2ccc(C)cc2)cc1OC
-15% | O=C(CCN1C(=O)C2C3C=CC(C3)C2C1=O)NCC1CCCO1 (stereo not drawn)
-4% | Nc1nonc1/C(=N/O)N1CCCC1

The list goes on.
HPGD block | Structure
-14% | C#CCCCC(=S)Nc1ccccc1
? | CCC(=O)Oc1ccc2c(C)c(Cl)c(=O)oc2c1
-17% | COc1ccc(OCCCSc2ncccn2)cc1
14µM* | COCCNC(=O)COc1ccc(C)cc1C
-8% | O=C(Cc1cccs1)Nc1nc(-c2ccccc2)cs1
? | O=C(Nc1ccccc1F)c1ccc2nc(N3C(=O)CCC3=O)sc2c1
-14% | Cc1cc(C)c2c(=O)cc(C(F)F)oc2c1
-10% | O=C(C[N+]1(c2ccccc2)CCOCC1)c1ccccc1
-24% | Cc1ccc(SCC(=O)N2CCCC2)cc1
-19% | CC(=O)OCC1OC(n2cnc3c(Cl)nc(Cl)nc32)C(OC(C)=O)C1OC(C)=O (stereo not drawn)
3% | CC(NC(=O)Nc1ccc([N+](=O)[O-])cc1)C(c1cccs1)N1CCCC1 (stereo not drawn)
-7% | CNC(=S)NN(c1ccccc1)c1ccccc1
-7% | CCOC(=O)N1CCN(C(=O)c2ccc(NC(=O)c3ccc(C)cc3)cc2)CC1
7.1µM* | Cc1ccc(O)c(C(CC(=O)N2CCCC2)c2ccccc2)c1 (stereo not drawn)
-11% | CN1C(=O)C2(NCCc3c2[nH]c2ccccc32)c2ccccc21 (stereo not drawn)
-7% | CCC/C(O)=C1\C(=O)CC(C)(C)CC1=Nc1ccccc1OC
-15% | c1ccc(-n2ncc3c2ncn2cnnc32)cc1
-4% | Cc1ccc(C(C(=O)NCc2ccco2)N(CC2CCCO2)C(=O)Cn2nnc3ccccc32)cc1 (stereo not drawn)
? | COc1cc(NC(=O)Cc2ccc(Cl)cc2)ccc1NC(=O)c1ccco1
-14% | O=C(c1cccc(Cl)c1)N1CCN(C(=O)c2ccccc2F)CC1

Carrying on.
HPGD block | Structure
1% | CC(SC(=S)N1CCOCC1)C(=O)O (stereo not drawn)
? | O=[N+]([O-])c1c(Nc2ccc(O)cc2)cc(N2CCOCC2)c2nonc12
-10% | Cc1nccn1CC(O)Cn1c2ccccc2c2ccccc21 (stereo not drawn)
-11% | NC(=O)C1CCN(c2ncnc3c(-c4ccccc4)nsc23)CC1
-15% | NNC(=O)COc1ccc(-c2n[nH]c(C(F)(F)F)c2-c2ccc(Br)cc2)c(O)c1
0% | Nc1cccc(-n2nnnc2CN2CCOCC2)c1
? | COc1ccc(Nc2ncnc3ccccc23)c(OC)c1
-28% | O=C(NCCc1ccccc1)c1noc2c1CCCCC2
? | O=c1[nH]c2ccccc2c(=O)n1Cc1ccccc1
-6% | COc1ccc(C(=O)N2CCC3(CCCN(CC(C)C)C3)CC2)cc1
? | COc1cccc(C(=O)O/N=C/c2ccc(Sc3ccc(C)cc3)nc2)c1
-1% | O=C(O)c1sccc1S(=O)(=O)c1ccccc1
1% | COc1ccc(OC)c(S(=O)(=O)Nc2ccc(CC(=O)O)cc2)c1
-13% | Cc1ccc(OCC(=O)OC(C)CN(C)Cc2ccccc2)cc1 (stereo not drawn)
-27% | Cc1cccc(-n2c(SCC(=O)N3CC(=O)Nc4ccccc43)nc3ccccc3c2=O)c1C
1% | CCC(C)c1ccc(NC(=S)Nc2ccc(OC)c(OC)c2)cc1 (stereo not drawn)
-14% | CCOC(=O)N/N=C/c1cn(CCCOc2ccccc2)c2ccccc12
-5% | CN1CCN(c2ccccc2NC(=O)Cc2ccc(Cl)cc2)CC1
-4% | O=C(CNCC1CCCO1)Nc1ccccc1N1CCOCC1 (stereo not drawn)
-24% | CC(Oc1ccc(Br)cc1)C(=O)N1CCc2ccccc21 (stereo not drawn)

Further compounds
HPGD block | Structure
-14% | Cc1nn(-c2ccccc2)c(Cl)c1/C=C/C(=O)c1ccccc1
-9% | CC(C)(C)OC(=O)N1CCNc2ccccc2C1
-19% | Cc1ccc(-c2nnn(C(C)C(=O)N3c4ccccc4CCc4ccccc43)n2)cc1 (stereo not drawn)
-26% | O=C(CCSc1ccccc1)Nc1nc2c(s1)COc1ccccc1-2
-1% | Cn1c(CNC(=O)c2ccccc2)nnc1SCC(=O)N1CCN(c2ccccc2)CC1
? | COC(=O)c1cc(OC)c(OC)cc1NCC(=O)Nc1cccc(C(F)(F)F)c1
-7% | COC(=O)NC(c1ccccc1)C1(C(=O)OC)C(=O)Cc2ccccc21 (stereo not drawn)
-5% | O=c1c(S(=O)(=O)c2ccc(Cl)cc2)cn(Cc2cccc(F)c2)c2ccc(F)cc12
